HIV TAR-Tat – HIV-1 TAR-Tat binding disruption. 100,000 compounds, 0.6% hits. HIV-1 TAR RNA, Tat peptide displacement FRET; active compounds read high. z-score (concentration not given with the values);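 further: score is relative to mean and SD of negative controls; some compounds called inactive have numbers as strong as hits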
CDC25B-CDK2 inh – human CDC25B-CDK2/CyclinA binding inhibition; P30305+P24941; 94,000 compounds, 0.72% hits; z-score (test concentration not listed); HTRF CDC25B-CDK2/CyclinA binding, anti-His/anti-Flag; active compounds read high;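 further: score is relative to mean and SD of negative controls; strong numbers were not always called active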
* hit, by the source's call; nt = no result given.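 How the source made its calls: active means z-score from 3 up in half or more of its runs; inactive means the rest.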

SMILES | HIV TAR-Tat | CDC25B-CDK2 inh
O=C1CCCc2cc(S(=O)(=O)N3CCC(CN4CCc5ccccc5C4)CC3)ccc2N1 | 0.49 | nt
Cc1cc(SC(C)C(=O)O)nc2ccccc12 (configuration not stated) | 0.01 | -0.27
CCCCn1cc(C(=O)c2ccc(C)cc2)c(=O)c2ccc(C)nc21 | 0.79 | -0.95
CCOC(=O)N1CCN(c2c(N3CCC(C(N)=O)CC3)c(=O)c2=O)CC1 | 0.6 | -2.1
CCc1ccc(Oc2coc3cc(OCC(=O)OC(C)CC)ccc3c2=O)cc1 (configuration not stated) | -0.14 | 0.45
Cc1cc(F)ccc1S(=O)(=O)Nc1c(C)n(C)n(-c2ccccc2)c1=O | -0.75 | -1.92
COC(=O)c1nc2nc(C)cc(C)n2n1 | 3.51 | -1.15
CCCCCC(=O)Nc1nc2nc(C)cc(C)n2n1 | 1.34 | -1.56
Cc1nc(OCC(C)C)c2sc3nc4c(cc3c2n1)COC(C)(C)C4 | nt | -1.81
COc1ccc(-n2c(SCC(=O)Nc3cc(C)on3)nc3c([nH]c4ccccc43)c2=O)cc1 | nt | -1.69
O=S(=O)(CCN(CCCc1ccccc1)S(=O)(=O)c1ccc(F)cc1)N1CCNCC1 | 1.94 | nt
O=c1c2ccccc2[nH]c(=S)n1CC1CC1 | nt | -0.38
COC(=O)c1cc(S(=O)(=O)N2CCCCC2)cn1C | 0.29 | -2.12
COc1ccc(S(=O)(=O)c2nnn(-c3cc(OC)ccc3OC)c2C)cc1 | 1.28 | 0.69
Nc1c(-c2nc(-c3ccc4c(c3)OCO4)no2)nnn1-c1ccc(Cl)cc1 | 1.04 | nt
O=C(CN1C(=O)c2cccnc2Sc2ccccc21)NCCc1ccco1 | -0.33 | nt
Clc1ccccc1CNc1c2c(nc3ncnn13)CCC2 | -0.42 | nt
O=C(O)CCn1c(=O)c2cc3c(=O)n(CCC(=O)O)c(=O)c3cc2c1=O | nt | -4.26
O=C(NCCN1CCNC1=O)c1cnn(-c2ccc(Cl)cc2)c1C(F)(F)F | nt | -1.53
CC(C)Cc1ccc(C(=O)C(C)N2CCN(c3ccc([N+](=O)[O-])cn3)CC2)cc1 (configuration not stated) | nt | -0.87
O=C1CC(c2ccccc2Cl)c2scc(-c3ccccc3)c2N1 (configuration not stated) | 0.72 | nt
C/C(=N\Oc1ccc([N+](=O)[O-])cc1[N+](=O)[O-])c1ccccc1 | nt | -0.94
O=S(=O)(O)c1ccc2c(c1)Cc1cc(S(=O)(=O)O)ccc1-2 | -0.28 | -1.12
CCN(CC)C(=O)Cn1ncc2c3ccccc3n(Cc3c(C)cc(C)cc3C)c2c1=O | -0.66 | -1.19
COc1ccc2[nH]c(C(=O)NCc3cc(Cl)ccc3Cl)cc2c1 | nt | -2.06
CCOc1ccc(C2c3c(-c4cc(C)ccc4O)n[nH]c3C(=O)N2CCCO)cc1 (configuration not stated) | -0.07 | -0.7
COc1ccc(NC(=O)N2CC=C(c3c[nH]c4ccccc34)CC2)c(OC)c1 | -2.95 | nt
CCOC(=O)C1=C(C)NC2=C(C(=O)c3ccccc32)C1c1ccc2c(c1)OCO2 (configuration not stated) | 0.12 | -0.33
Cc1nnc(SCc2ccccc2Cl)c2cc3sccc3n12 | 2.49 | nt
CC(CC(=O)N1CCCc2ccccc21)S(=O)(=O)c1ccc2c(c1)NC(=O)CO2 (configuration not stated) | 1.36 | nt
Cc1cccc(CN2CCc3nc(N4CCC(C)CC4)ncc3C2)c1 | 1.65 | nt
O=C(Nc1ccccc1)c1ccc2cccc(O)c2n1 | 1.73 | nt
CC(=O)Oc1cccc(O)c1 | 1.26 | nt
O=C(c1ccc(NC2=NC3CS(=O)(=O)CC3S2)cc1)N1CCN(c2ccccn2)CC1 (configuration not stated) | 1.9 | nt
Cc1c(Cl)cccc1Nc1nnc(C)c(=O)[nH]1 | nt | 0.26
O=c1[nH]c2cc3c(cc2c(=O)n1CCc1nc(-c2cccc(Br)c2)no1)OCO3 | 0.22 | nt
O=C(CN1N=NC2C(=O)N(c3ccc(F)c(Cl)c3)C(=O)C21)Nc1ccccc1 (configuration not stated) | -0.55 | nt
CCOc1ccc(-n2nnc(-c3nc(-c4ccc5c(c4)OCO5)no3)c2N)cc1 | -0.18 | nt
Clc1ccc(-n2cc(-c3ccccc3)c3c(NC4CC4)ncnc32)cc1 | -1.4 | -0.91
CCOC(=O)c1c(S(=O)(=O)N2CCCC(C(=O)N(C)Cc3ccco3)C2)c(C)n(C)c1C (configuration not stated) | 1.34 | nt
O=C(CSc1ccc2nnc(-c3ccccc3)n2n1)NCC1CCCO1 (configuration not stated) | nt | 0.45
Cc1ccc2ncc(C(=O)Nc3cccc(Br)c3)c(=O)n2c1 | 0.58 | -1.1
Cc1[nH]c2ccccc2c1C(=O)C(=O)N1CC(C)OC(C)C1 (configuration not stated) | nt | -0.01
O=C(CC1CCN(S(=O)(=O)c2cccs2)CC1)N1CCC(N2CCCCC2)CC1 | -0.88 | nt
O=C(NCC1CCCO1)C1Sc2nnc(-c3ccccc3)n2NC1c1ccccc1 (configuration not stated) | 1.13 | -2.31
O=S(=O)(NCc1ccc(Cl)cc1)c1ccc2[nH]c3c(c2c1)CCCC3 | 1.15 | nt
O=C(Cn1cnc(S(=O)(=O)N2CCOCC2)c1)Nc1nccs1 | -1.1 | nt
CCOC(=O)c1oc2ccccc2c1CN1CCN(C)CC1 | -0.12 | -1.94
CCOC(=O)c1c(C)[nH]c(C)c1S(=O)(=O)N(C)Cc1ccco1 | 0.57 | nt
COC(=O)c1sccc1NC(=O)C1COc2ccccc2C1 (configuration not stated) | 0.33 | nt
CCN(C(=O)CSc1nc(-c2ccc(C)cc2)nc2cc(=O)[nH]n12)c1ccccc1 | 0.56 | nt
O=C(OCc1cc(=O)n2nc(-c3cccs3)sc2n1)c1ccc(F)cc1 | 0.4 | nt
O=C(NCCSc1ccccc1)c1cccc(-n2cnnc2)n1 | 1.44 | nt
O=c1[nH]c2cc3c(cc2c(=O)n1Cc1nc(-c2ccccc2Br)no1)OCO3 | -1.18 | nt
Cn1cccc1Cc1nnc(SCC(=O)N2CCCCC2)n1-c1ccc(F)cc1 | -0.07 | -2.06
CC1=C(C(=O)OC2CCCCC2)C(c2ccc(N(C)C)cc2)C2=C(CCCC2=O)N1 (configuration not stated) | 1.08 | -0.07
CCOC(=O)/C(C#N)=C/N(CC)CC(O)CC (configuration not stated) | nt | 0.02
CCC(C)Nc1nc2c(S(=O)(=O)c3ccc(C)cc3)nnn2c2ccccc12 (configuration not stated) | 1.63 | -1.07
CCOC(=O)Cn1c(=O)oc2cc(S(=O)(=O)N3CCN(CC)CC3)ccc21 | nt | -0.96
CCCCC(=O)N(c1ccc(OC)cc1)C1C=CS(=O)(=O)C1 (configuration not stated) | -0.57 | -1.9
Further records follow:
SMILES | HIV TAR-Tat | CDC25B-CDK2 inh
CSc1cccc(NS(=O)(=O)c2ccc3c(c2)NC(=O)C(C)CS3)c1 (configuration not stated) | 1.17 | nt
COc1cccc(/C=C/c2nc(C#N)c(N3CCc4ccccc4C3)o2)c1 | -1.42 | -2.05
CCn1cc(S(=O)(=O)c2ccc(F)cc2)c(=O)c2ccccc21 | 0.04 | -0.47
CC1CCN(C2=CC(=O)OC23CCCCC3)CC1 | -4.13 | 0.31
CCN(CC)CCN(C(=O)C1=COCCO1)c1nc2ccc(Br)cc2s1 | -0.57 | nt
O=C(CN1C(=O)COc2ccc(S(=O)(=O)NC3CCCC3)cc21)NC1CCCc2ccccc21 (configuration not stated) | 1.08 | nt
CCOC(=O)c1c(NC(=O)Nc2ccc(Cl)cc2)sc(C)c1C | -0.84 | 0.63
CC(=O)OCc1cnc(C)c2oc(=O)c(-c3nc(-c4ccccc4)no3)cc12 | -0.55 | -1.54
O=C(O)Cn1cnc2c([nH]c3ccc(F)cc32)c1=O | 2.19 | -0.18
CCCCn1c(=O)c2c(nc3n2CCS3)n(C)c1=O | 1.13 | 0.36
NC(=O)c1c(NC(=O)CS(=O)(=O)c2ccc(Cl)cc2)sc2c1CCCCC2 | -0.47 | nt
CCOC(=O)c1cc(S(=O)(=O)N(C)CC(=O)N2CCN(C3CCCCC3)CC2)cn1C | 0.58 | nt
CC1(C)CC(=O)C2=C(C1)Nc1ccccc1N(C(=O)Nc1ccc(F)cc1)C2c1ccco1 (configuration not stated) | 1.7 | nt
COc1cc(C2OCC3(COC(C)=O)C(C)C=C(C)C2C3C)ccc1OC(C)=O (configuration not stated) | 2.07 | -1.72
O=C(NCc1noc2ccccc12)Nc1cccc(Cl)c1 | -0.09 | 0.19
CSc1cccc(NC(=O)C2CCN(S(=O)(=O)c3ccc4[nH]c5c(c4c3)CCCCC5)CC2)c1 | -0.05 | nt
CCN1CCc2c(sc(-n3cccc3)c2CNC(=O)Nc2ccccc2Br)C1 | -7.48 | nt
CCCc1[nH]nc2c1C(c1ccncc1)C(C#N)=C(N)O2 (configuration not stated) | 2 | -0.44
COCCOC(=O)C1=C(C)NC2=C(C(=O)CC(C)(C)C2)C1c1cccc2ccccc12 (configuration not stated) | -0.8 | -1.43
CCN1CCN(CCCNC(=O)c2oc3ccc4c(c3c2C)C(O)CC2(CCCCC2)O4)CC1 (configuration not stated) | 0.6 | nt
Cn1nnnc1SCC(=O)Nc1cccc(O)c1 | 0.04 | -1.01
Cc1cc2c(cc3c(=O)n(CCCC(=O)NC4CCCC(C)C4C)nc(C)n32)o1 (configuration not stated) | 0.88 | -1.53
NNC(=O)CCn1nnc(-c2cccc(Cl)c2Cl)n1 | nt | -0.87
CSc1ncc2c(=O)n(C(C)C)ccc2n1 | -0.02 | 1.77
c1ccc(-c2nnc(-c3cccnc3)o2)cc1 | 1.56 | -1.68
CCc1nnc(NS(=O)(=O)c2ccc(NC(=O)c3cccc4ccccc34)cc2)s1 | nt | -0.46
COc1ccc(Nc2oc(-c3ccc(COc4ccccc4)o3)nc2C#N)cc1 | -0.55 | -1.35
O=C1CC(c2c[nH]c3ccccc23)C(=O)N1c1ccccc1 (configuration not stated) | -1.3 | -1.09
COCCCNC(=O)c1nc2ccccc2c(=O)n1NC(=O)Nc1c(Cl)cccc1Cl | nt | -1.52
COC(=O)C(C)NC(=O)NCc1cc(C)n(-c2ccc(OC)cc2)c1C (configuration not stated) | -2.55 | nt
CC1CCc2onc(C(=O)Nc3cccnc3)c2C1 (configuration not stated) | 0.84 | nt
CCC1CCCCN1CCCNC(=O)c1cc2n(n1)CC(C)(C(=O)NC1CCCC1)N(C)C2=O (configuration not stated) | 0.84 | nt
Cc1cc(C)n2ncc(C(=O)N3CCCC(C)C3)c2n1 (configuration not stated) | 1.03 | nt
Cc1ccc(S(=O)(=O)NCCc2csc(-c3ccc(F)cc3)n2)s1 | 2.29 | nt
CC1(C)CC(=O)C2=C(C1)NC(=O)CC2c1ccccc1OCc1ccccc1 (configuration not stated) | 1.11 | -2.12
O=c1c2cc(-c3ccccc3)sc2nnn1/N=C/c1cccs1 | nt | -1.67
CC1CN(C(=O)N2CCC(C(=O)N3CCOCC3)CC2)c2ccccc2O1 (configuration not stated) | -0.66 | nt
CC(CCc1ccco1)NC(=O)c1cc2c(-c3ccccc3F)nn(C)c2s1 (configuration not stated) | nt | -0.44
Cn1cc(-c2cc3n(n2)CCCN3C(=O)CCC(=O)NCC2CCCO2)c2ccccc21 (configuration not stated) | 2.5 | nt
O=C1SCCC1NS(=O)(=O)c1ccccc1 (configuration not stated) | 0.72 | -3.04
Cc1cc(C)cc(OCC(=O)Nc2nc(-c3ccc(Br)o3)ns2)c1 | 0.44 | -2.65
O=C(NCC1CCCO1)C1CCN(C(=O)c2cnn(-c3ccccc3)c2-n2cccc2)CC1 (configuration not stated) | -0.17 | -0.48
O=C(O)CCN1C(=O)C(=O)/C(=C(/O)c2ccc(Cl)cc2)C1c1ccc(F)cc1 (configuration not stated) | nt | 0.52
C=CCSc1nnc(NC(=O)Cc2coc3c(C)c(C)ccc23)s1 | -1.32 | -4.57

Screening data deposited in PubChem by Center for Chemical Genomics, University of Michigan.
